VACV Venus inh = vaccinia inhibition (Venus reporter); Vaccinia virus Venus reporter expression, fluorescence; Potency, µM (titrated, usually from 36.5 µM), for the others: top-dose activity change, negative = inhibition, most hits filed as inhibitors; hit rate 0.46% among 330,000; AID 720580; active means well fitted inhibition curve with a large enough effect; inconclusive means small, poorly fitted or top-dose-only effect; inactive means no such curve, though single readings can be large or run the other way; tested in A549 cells; note: nearly all actives have a fitted effect of over 30% in size; inactives centre near -10
VACV mCherry inh = vaccinia inhibition (mCherry reporter); AID 720579; Vaccinia virus mCherry reporter infection, fluorescence; about a quarter of the inactives have no number; Potency, µM (titrated, usually from 36.5 µM), without a hit: at the highest dose activity change, negative = inhibition, most hits filed as inhibitors; hit rate 0.63% among 310,000; active = well fitted inhibition curve with a large enough effect; inconclusive = small, poorly fitted or top-dose-only effect; inactive = no such curve, though single readings can be large or run the other way; tested in A549 cells; note: nearly all actives have a fitted effect of over 35% in size; inactives centre near -10
* marks the source's active call; other numbers are inactive results; i = inactive; ? = inconclusive; nt = no result given; [ ] = dose if it differs, or a comment. % is set by controls: 0 for no effect and ±100 for the full control effect; potency is the fitted concentration of half-maximal effect.

| Compound | VACV Venus inh | VACV mCherry inh |
| --- | --- | --- |
| Cc1ccc2c(c1)C(CCN)C(=O)N2Cc1ccccc1 (centres undefined) | -13% | -18%[1.46 µM] |
| Cc1cc(C)cc(Oc2ccccc2C=O)c1 | -11% | nt |
| CC1(C(=O)OCC(=O)Nc2ncc(Cl)cc2Cl)CC1(Cl)Cl (centres undefined) | -8% | -20% |
| CC1=C(C(=O)Nc2ccc(Cl)cc2)C(c2ccccc2F)n2nc(SCc3cccc(Cl)c3)nc2N1 (centres undefined) | -1% | -16% |
| CCOc1ccccc1N1CCN(C(=O)c2ccc(Cl)c(S(=O)(=O)N3CCCCC3)c2)CC1 | -22% | -18% |
| COc1ccccc1CNC(=O)CS(=O)Cc1nc(-c2ccc(OC)c(OC)c2)oc1C (centres undefined) | -8% | -5% |
| Cc1nc2ccc(NC(=O)c3cccs3)cc2c(=O)n1Cc1ccc(Cl)cc1 | ? | 11µM* |
| CN(C(=O)COC(=O)c1cc(F)c(F)cc1Cl)c1ccccc1 | -2% | -2% |
| CCc1noc(C)c1C(=O)N(Cc1ccccc1)c1c(N)n(CCOC)c(=O)[nH]c1=O | -8% | -7% |
| CCOC(=O)Cn1c(=NC(=O)C2COc3ccccc3O2)sc2cc(S(N)(=O)=O)ccc21 (centres undefined) | -20% | i |
| CCCn1c2ccccc2c2cnn(CC(=O)NCCCN(Cc3ccccc3)C(C)C)c(=O)c21 | -16% | -18% |
| O=C(NCc1cccc(Cl)c1)c1ccc2nc(N3CCOCC3)sc2c1 | -3% | 9% |
| CCCCNC(=O)N1c2ccccc2CC1C (centres undefined) | -19% | i |
| COC(=O)[C@@H](NC(=O)N1CCN(C(=O)C2COc3ccccc3O2)CC1)C(C)C (some centres undefined) | -5% | -11% |
| Cc1[nH]c(=O)c(C#N)c(C)c1CCC(=O)NCc1cccc(C(F)(F)F)c1 | 4% | -11% |
| O=C(Nc1cccc(F)c1)c1ccc(S(=O)(=O)NCC2CCCO2)cc1 (centres undefined) | -18% | -3% |
| CCOC(=O)c1cc2c(=O)n3ccccc3nc2n(CC2CCCO2)c1=NC(=O)c1cccc(C(F)(F)F)c1 (centres undefined) | -17% | -13% |
| CCc1cc(=O)[nH]c(SCC(=O)Nc2ccc3c(c2)OCCO3)n1 | -14% | -21% |
| Cc1ccsc1/C=N/NC(=O)C(N)=O | -5% | i |
| O=C(NNC(=O)c1ccccc1C(=O)O)c1ccc(O)cc1 | -2% | -7% |
| COc1ccc(CC(=O)NCc2nnc(SCC(=O)Nc3nccs3)n2-c2ccccc2)cc1 | -15% | -2% |
| COc1ccccc1N1CC(O)=C(c2nc3ccccc3c(=O)[nH]2)C1=N | ? | 5.6µM* |
| COc1ccc(Br)cc1/C=N/n1c(C)nnc1C | 17% | 8% |
| O=c1cc(CN2CCN(S(=O)(=O)c3ccc4ccccc4c3)CC2)nc2sccn12 | -5% | i |
| CN(C(=O)/C=C/c1ccccc1)C1CCCCC1 | -1%[7.34 µM] | i[7.34 µM] |
| O=c1c2c3c(sc2ncn1/N=C/c1cccnc1)CCCC3 | -21% | -19% |
| c1ccc(Sc2ccncc2)cc1 | -4% | -15% |
| COc1cc(NC(=O)NCc2ccco2)ccc1-c1ccc(NC(=O)NCc2ccco2)cc1OC | -21% | ? |
| CSc1ccc(-c2nc3cccc(C)n3c2Nc2ccc(Cl)cc2)cc1 | 3% | -18% |
| COc1ccc(OCC(O)CNS(=O)(=O)c2cccc(Cl)c2)cc1 (centres undefined) | -16% | -6% |

(next part)
| Compound | VACV Venus inh | VACV mCherry inh |
| --- | --- | --- |
| COC(=O)[C@@H](NC(=O)Nc1ccc(OC(F)(F)F)cc1)C(C)C | -26% | nt |
| COc1ccc(C(=O)N=C2SC3CS(=O)(=O)CC3N2c2ccccc2)cc1OC (centres undefined) | -6% | -13% |
| CC1=NN(C(=O)COc2ccc(C)c(C)c2)C(O)(c2ccc(Cl)cc2)C1 (centres undefined) | -12% | -4% |
| O=C(CSc1nnc(C2COc3ccccc3O2)o1)N1CCCC1 (centres undefined) | -4% | i |
| CSc1ncccc1C(=O)OCC(=O)N(C)C | -12% | -6% |
| CCC(C)(O)C(=O)N[C@H]1CCCN1C(=O)/C=C/c1ccccc1 (some centres undefined) | -5% | i |
| COc1cc(C(O)c2nc(-c3cccs3)cs2)ccc1F (centres undefined) | -9% | i |
| Cc1occc1-c1nnc(SCC(N)=O)o1 | 0% | -11% |
| CCN(CC)C(=O)Oc1ccc2oc(=O)cc(-c3cc4cccc(OC)c4o3)c2c1 | -14% | -6% |
| CN1CCN(C(=O)c2cc(Cl)cc(Cl)c2)CC1 | -5% | i |
| CC(C)CN(C(=O)CSc1nnnn1-c1ccccc1)c1c(N)n(CC(C)C)c(=O)[nH]c1=O | 0% | i |
| CC(C)(CNC(=O)c1ccc(S(=O)(=O)Nc2ccccc2F)cc1)N1CCOCC1 | -3% | -19% |
| COc1cc(C2c3c(-c4c(C)cc(C)cc4O)n[nH]c3C(=O)N2Cc2ccco2)cc(OC)c1OC (centres undefined) | -13% | i |
| O=C(Nc1ccccc1)c1ccc[n+](Cc2ccc([N+](=O)[O-])cc2)c1 | 2% | -5% |
| CN(Cc1ccccc1)C(=O)C1CCN(S(=O)(=O)c2cccc3nonc23)CC1 | -5% | i |
| O=C(COc1ccccc1)NCc1ccccc1 | -8% | -15% |
| COCc1cc(=O)[nH]c2cc(NC(=O)C(F)(F)F)c(C)cc12 | -1% | -13% |
| O=C(CCNS(=O)(=O)c1ccc2c(c1)CCCC(=O)N2)Nc1cccc(Cl)c1 | 5% | -1% |
| NS(=O)(=O)c1cccc(NC(=O)CSc2nc3nc(-c4cccs4)cc(C(F)(F)F)c3c(=O)[nH]2)c1 | -13%[7.34 µM] | i[7.34 µM] |
| CC1=C(C(=O)Nc2ccccc2)C(c2cc(Br)ccc2F)n2ncc(C(=O)Nc3ccccc3)c2N1 (centres undefined) | -18% | -10% |
| O=S(=O)(c1ccc(S(=O)(=O)N(Cc2ccco2)Cc2ccccc2Cl)cc1)N1CCCC1 | -9% | nt |
| O=C1C=C(NCCc2ccccc2)C2(CCCCC2)O1 | -8% | 5% |
| CN1CCc2nc(NC(=O)c3cccc(S(=O)(=O)N4CCc5ccccc54)c3)sc2C1 | -16% | -26% |
| COc1ccc(NC(=O)/C(=C\c2ccc(OS(=O)(=O)c3ccc(C)cc3)cc2)NC(=O)c2ccccc2)cc1 | -11% | -11% |
| Cn1cnnc1SCc1ccc(F)c2ccccc12 | -11% | -9% |
| CC1CC1C(=O)OCC(=O)NCc1ccc(Cl)cc1Cl (centres undefined) | -9% | i |
| CCOC(=O)CC(=O)CSc1nc2c(sc(=S)n2-c2ccc(C)c(C)c2)c(=O)[nH]1 | -3% | -5% |
| O=C(NCc1cccc(C(F)(F)F)c1)c1ccc2nc([C@@H]3O[C@H](CO)[C@@H](O)[C@H]3O)[nH]c2c1 | 16% | 11% |
| COC(=O)[C@H]1C[C@@H]1[C@H](NC(=O)c1cc(C)on1)c1ccccc1 | -11% | -7% |
| COc1ccc(C)cc1NC(=O)C1CCN(C(=O)Cc2ccccc2)CC1 | -11% | i |

Later entries.
| Compound | VACV Venus inh | VACV mCherry inh |
| --- | --- | --- |
| COc1ccccc1C(=O)N/N=C1/NC(=O)CC(C(=O)Nc2ccccc2)S1 (centres undefined) | -9% | i |
| COc1ccc(C(=O)n2c(N)nc3ccccc32)cc1OC | -13% | i |
| COc1ccc(OC)c(-c2nn(-c3ccccc3)cc2C(=O)NCC(c2cccs2)N2CCOCC2)c1 (centres undefined) | -21% | -2% |
| CC(C)=C(NC(=O)c1ccccc1)C(=O)N/N=C(\C)c1ccccc1O | -11% | -21% |
| CCOc1ccc(NC(=O)CN(C)C(=O)c2cccc3ccccc23)cc1OCC | -17% | -24% |
| CN(C)c1cccc(CNC(=O)c2csc([C@H]3C[C@H](O)[C@@H](CO)O3)n2)c1 | -6% | i |
| Cc1ccc(C(=O)c2ccccc2C(=O)O)s1 | ? | i |
| COC(=O)c1ccc(CNC(=O)c2ccc3c(c2)OCCO3)cc1 | -9% | -6% |
| CCC(C)C(=O)OC1CCC=C2C=CC(C)C(CCC3CC(O)CC(=O)O3)C21 (centres undefined) | -16% | -21% |
| O=C(/C=C/c1ccc(Cl)cc1)N[C@@]12CCC(=O)[C@@H]3Oc4c(O)ccc5c4[C@@]31CCN(CC1CC1)C2C5 | ? | ? |
| CNC(=O)C1CCC(Cn2c(=O)c3sccc3n(Cc3ccc(F)cc3)c2=O)CC1 (centres undefined) | -11% | -5% |
| CC(C)(C)S(=O)N1Cc2ccc(CO)cc2[C@@H]1CCO (some centres undefined) | -14% | -14% |
| NC(=O)C1CCN(C(=O)CSc2nc3ccccc3[nH]2)CC1 | -10% | -14% |
| O=C(Cc1ccccc1Cl)c1ccccc1 | -11% | -13% |
| CNS(=O)(=O)c1cccc(C(=O)OCC(=O)c2ccc3c(c2)OCCO3)c1 | -5% | i |
| CCC(=O)N1Cc2cc(C(=O)N(C)C)nc(-c3cccc(-c4cncnc4)c3)c2[C@@H]1CCO | 8% | -12% |
| COc1cccc(-c2ncc3ccccn23)c1 | -5% | nt |
| O=C(CN1C(=O)/C(=C/c2cccc(Br)c2)SC1=S)N1CCCC1 | -3% | i |
| Cc1cc(Sc2ccc([N+](=O)[O-])cn2)ccc1Br | -10% | -12% |
| COc1ccc(S(=O)(=O)N2CCCN(S(=O)(=O)c3ccc(OC)cc3C)CC2)c(C)c1 | -11% | -6% |
| Cc1ccc(/C=C/c2onc(C)c2S(=O)(=O)N2CCC(C(=O)N3CCCCC3)CC2)cc1 | ? | -29% |
| CCC(=O)C1CCCN(C(=O)c2cccc(OC3CCN(S(C)(=O)=O)CC3)c2)C1 (centres undefined) | -29% | -2% |
| CN(CCc1cn[nH]c1)Cc1nc(Cc2ccccc2)no1 | 4% | 7% |
| Cc1ccc(COC(=O)Cc2coc3cc(O)ccc23)cc1 | ? | ? |
| Cc1ccc2c(c1)oc(=O)n2CC(=O)c1ccccc1 | -7% | -17% |
| O=C(Cn1cc(C(F)(F)F)ccc1=O)N/N=C/c1ccc(F)cc1 | -2% | 2% |
| COc1ccc(NC(=O)C(C)(C)Oc2ccc(Cl)cc2)cn1 | 1% | -7% |
| CCn1nc(C)cc1C(=O)NCC1CCC2(CCN(Cc3ccccc3F)CC2)O1 (centres undefined) | -14% | -14% |
| CCn1c(C(=O)Nc2cc(Cl)ccc2C)cc2sc(Cl)cc21 | -9% | -13% |
| CN=Cc1nc(-c2ccccc2)oc1O | -11% | nt |

3 entries out of the list, ordered by number of heavy atoms, descending.
| Compound | VACV Venus inh | VACV mCherry inh |
| --- | --- | --- |
| CCOc1ccc(NC(=O)CN(C)C(=O)c2cccc3ccccc23)cc1OCC | -17% | -24% |
| CCC(C)C(=O)OC1CCC=C2C=CC(C)C(CCC3CC(O)CC(=O)O3)C21 (centres undefined) | -16% | -21% |
| O=C(Cc1ccccc1Cl)c1ccccc1 | -11% | -13% |

One compound at a time, from the list above. Screens in order: VACV Venus inh, VACV mCherry inh
`CCC(=O)C1CCCN(C(=O)c2cccc(OC3CCN(S(C)(=O)=O)CC3)c2)C1` (centres undefined) is entered as -29%, -2%
`COc1ccc(OC)c(-c2nn(-c3ccccc3)cc2C(=O)NCC(c2cccs2)N2CCOCC2)c1` (centres undefined) is entered as -21%, -2%
`CC(C)(C)S(=O)N1Cc2ccc(CO)cc2[C@@H]1CCO` (some centres undefined) is entered as -14%, -14%
`COc1ccc(C(=O)n2c(N)nc3ccccc32)cc1OC` is entered as -13%, i
`CN(CCc1cn[nH]c1)Cc1nc(Cc2ccccc2)no1` is entered as 4%, 7%

The listing continues:
| Compound | VACV Venus inh | VACV mCherry inh |
| --- | --- | --- |
| Cc1cc(C(=O)N/N=C/c2cccs2)n[nH]1 | 1% | i |
| O=S1(=O)CC(N2CCOCC2)c2ccccc21 (centres undefined) | -9% | nt |
| CC(=O)NS(=O)(=O)c1ccc(N=c2ssc3c2-c2ccc(C)cc2NC3(C)C)cc1 | -11% | -23% |
| COc1ccc(CCNC(=O)c2ccc3c(Cl)c4c(nc3c2)CCCC4)cc1OC | -21% | -24% |
| O=C1OCC2=C1C(c1ccc(Cl)cc1)c1cc3c(cc1O2)OCO3 (centres undefined) | -25% | ? |
| COc1ccc(OCCCn2c(C)nc3cc(C)c(C)cc32)cc1 | -20% | -17% |
| CCOCCCn1c(C)nc2c[n+](CC(=O)c3ccc4ccccc4c3)cc(Br)c21 | -15% | -1% |
| COc1ccc(Cl)cc1S(=O)(=O)N1CCN(Cc2cccc(F)c2)CC1 | -12% | -13% |
| N#Cc1cc2ccccc2nc1SCC(=O)Nc1ccccc1N1CCOCC1 | -21% | ? |
| C=CCn1c(SCC(O)Cn2c3ccccc3c3ccccc32)nnc1-c1ccco1 (centres undefined) | -27% | nt |
| O=C(c1ccco1)N1CCN(C(=O)c2ccco2)CC1 | 0% | i |
| CCCCNC(=O)c1nnn(-c2ccccc2)c1N | -12% | -15% |
| CN1C(=O)NC(=O)C(N=Nc2ccc(Cl)cc2)C1=O (centres undefined) | -20% | ? |
| COc1ccc(-c2cccc(NS(=O)(=O)c3ccc(NC(C)=O)cc3)c2)nn1 | -9% | -3% |
| CCSc1nnc2c(n1)OC(c1ccc(C(=O)O)cc1)N(C(C)=O)c1ccccc1-2 (centres undefined) | -4% | 2% |
| c1coc(CNc2nc3ccccc3n2CCN2CCOCC2)c1 | -11% | -1% |
| O=C(NCCCN1CCOCC1)c1cc2ccccc2cc1O | -11% | i |
| O=C(O)c1sc2cc(C(F)(F)F)cnc2c1-c1ccccn1 | -5% | -10% |

Bioassay records deposited in PubChem BioAssay by National Center for Advancing Translational Sciences (NCATS).
